Compound activity as filed in PubChem.
Rango-impB inh – Rango-importin beta binding inhibition; Rango CFP/YFP FRET sensor + importin beta, 45 min; Potency, µM (top dose mostly 92.2 µM), for inactives: at the highest dose inhibition of complex formation; actives 0.031% (n = 340,000); Q14974; active = rising FRET ratio curve, often small or poorly fitted; inconclusive = mostly compound fluorescence or quenching in the first reads; inactive = flat curves in all reads;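 note: potency is the fitted concentration of half-maximal effect; 0% = DMSO wells and 100% = buffer wells lacking importin beta; nearly all actives have a fitted effect of over 15% in size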
Target sequence (Q14974 whole entry, looked up): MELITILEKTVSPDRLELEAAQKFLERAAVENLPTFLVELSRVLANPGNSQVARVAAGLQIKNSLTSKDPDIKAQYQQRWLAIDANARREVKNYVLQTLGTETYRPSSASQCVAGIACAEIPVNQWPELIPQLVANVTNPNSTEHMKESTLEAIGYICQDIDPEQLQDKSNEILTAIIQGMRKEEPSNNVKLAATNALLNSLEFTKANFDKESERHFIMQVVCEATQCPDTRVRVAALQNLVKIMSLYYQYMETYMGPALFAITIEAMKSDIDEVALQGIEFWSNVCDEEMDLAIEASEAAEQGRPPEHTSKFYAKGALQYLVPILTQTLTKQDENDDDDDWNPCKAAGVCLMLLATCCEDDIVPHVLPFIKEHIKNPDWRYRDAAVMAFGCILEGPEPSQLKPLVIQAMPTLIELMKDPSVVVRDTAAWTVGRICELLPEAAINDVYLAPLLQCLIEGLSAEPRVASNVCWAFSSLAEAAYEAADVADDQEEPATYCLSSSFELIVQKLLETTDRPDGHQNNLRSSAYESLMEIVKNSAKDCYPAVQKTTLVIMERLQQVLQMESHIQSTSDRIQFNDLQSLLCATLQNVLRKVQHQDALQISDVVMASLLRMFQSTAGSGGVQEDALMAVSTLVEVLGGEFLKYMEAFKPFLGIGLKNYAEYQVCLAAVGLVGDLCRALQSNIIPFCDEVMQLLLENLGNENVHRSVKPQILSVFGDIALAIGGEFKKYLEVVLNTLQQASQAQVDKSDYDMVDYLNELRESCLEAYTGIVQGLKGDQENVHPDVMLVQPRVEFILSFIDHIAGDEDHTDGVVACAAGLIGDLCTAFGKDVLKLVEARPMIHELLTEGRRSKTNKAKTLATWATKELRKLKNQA
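FRET biosensor (snurportin 1 IBB flanked by EYFP and cerulean), 50 nM, with compound 5 min, then 0.125 microM importin beta in PBS, 1 mM DTT, 0.02% Tween-20, 0.1% BSA. CFP/YFP ratio read after 45 min at room temperature; pre-read flags interference.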
GLA inh pH 4.5 – alpha-galactosidase A (human) inhibition, pH 4.5. P06280. purified enzyme, 4-MU-alpha-Gal fluorescence, pH 4.5. activity change, negative = inhibition, % at 105 µM. 230,000 tested, under 10 active. AID 1467; inconclusive = small, poorly fitted or top-dose-only inhibition, or a rising curve; inactive = flat fitted curve, though single readings scatter; no compound was filed as active;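 note: 0% = full activity with enzyme and -100% = basal without enzyme; dose as in the result columns while the protocol names 77 µM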
miR-21 FLuc – raises the signal of a miR-21 reporter. 340,000 tested, under 10 active. HeLa miR-21 FLuc reporter, luciferase, 48 h. AID 2288. Potency, µM (doses to about 38.3 µM), without a hit: at the highest dose reporter change, positive = more light; active = well fitted rising curve with a large enough effect; inconclusive = small, poorly fitted or top-dose-only effect; inactive = no such curve, though single readings can be large or run the other way;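 note: % of control where 0% means no effect; miR-21 action dims this reporter so a rising signal means less miR-21 action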
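HeLa miR-21-FLuc reporter line, endogenous miR-21; 2000 cells/well in DMEM/10% FBS; compound titration up to ~40uM final, 48 h, 37 degree Celsius; luciferase detection reagent, 15 min lysis, CCD luminescence.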
Rango dissoc inh – inhibitors of RanGTP-induced Rango-importin beta complex dissociation | Biochemical FRET Rango-importin beta, RanGTP-induced dissociation | actives 0.071% (n = 340,000) | Potency, µM (titrated, usually from 46.1 µM), inactives show at the highest dose activity change, negative = inhibition | AID 540253 | O95149+P62826; active means falling FRET ratio curve, often poorly fitted, with flat reads before Ran was added; inconclusive means other falling curves, or compound fluorescence or quenching; inactive means flat or rising ratio curve;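 note: potency is the fitted concentration of half-maximal effect; % of control where 0% means no effect; nearly all actives have a fitted effect of over 45% in size; -100% = wells without RanGTP and RCC1; the record marks most hits as doubtful in a second field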
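FRET read at 45 min, room temperature: inhibitors block the CFP/YFP signal rise when RanGTP (0.6 uM Ran, 2 mM GTP, 0.2 uM RCC1) frees Rango (0.1 uM) from importin beta (0.25 uM). Pre-read after 5 min compound exposure flags interference.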
Numbers without * were called inactive; ? = inconclusive; / = not tested or not shown; [ ] = another dose, or the depositor's remark. A portion of the library; count on the stated rates, not on these rows.

A first look (5 entries):
Rango-impB inh,GLA inh pH 4.5,miR-21 FLuc,Rango dissoc inh,mol
1.4%,5,9%,-6%,COc1cccc(Cn2c(Oc3ccccc3)nc3c2c(=O)n(C)c(=O)n3C)c1
-1.0%,-10[21.1 µM],1%,-4%,C=CCn1c(SCC(=O)CC(=O)OCC)nc2cc(C(=O)N3CCC(C(N)=O)CC3)ccc2c1=O
4.8%,/,-1%,8%,O=C(O)c1ccc(OCCN2CCCC2=O)cc1
-1.3%,7,-33%,-1%,CCCOc1ccc(N2C(=O)CC(N(O)c3ccccc3)C2=O)cc1 (stereo unspecified)
/,-2,-4%,/,CCN(CC)c1ccc(/C=C2/C(=O)N(c3ccc([N+](=O)[O-])cc3)N=C2N2CCOCC2)cc1

The whole of this part (from the top)
Rango-impB inh,GLA inh pH 4.5,miR-21 FLuc,Rango dissoc inh,mol
1.4%,5,9%,-6%,COc1cccc(Cn2c(Oc3ccccc3)nc3c2c(=O)n(C)c(=O)n3C)c1
-1.0%,-10[21.1 µM],1%,-4%,C=CCn1c(SCC(=O)CC(=O)OCC)nc2cc(C(=O)N3CCC(C(N)=O)CC3)ccc2c1=O
4.8%,/,-1%,8%,O=C(O)c1ccc(OCCN2CCCC2=O)cc1
-1.3%,7,-33%,-1%,CCCOc1ccc(N2C(=O)CC(N(O)c3ccccc3)C2=O)cc1 (stereo unspecified)
/,-2,-4%,/,CCN(CC)c1ccc(/C=C2/C(=O)N(c3ccc([N+](=O)[O-])cc3)N=C2N2CCOCC2)cc1
0.3%,/,/,-11%,CC1CCCCN1C(=O)CSc1nnc2ccccn12 (stereo unspecified)
-1.2%,/,/,2%,O=C(NNC(=O)c1ccc2ccccc2c1)c1ccc(Cl)cc1
?,/,/,0%,CN(c1ccccc1)S(=O)(=O)c1cccc(NC(=O)CSc2nccc(=O)[nH]2)c1
-0.7%,2,-8%,5%,Cn1c(SCc2nc3ccccc3c(=O)[nH]2)nnc1-c1ccco1
0.5%,/,/,15%,CN(CCc1ccccc1)C(=O)c1cccc(NC(=O)Cc2cccc(NC(=O)C3CCN(C(=O)C4CCCC4)CC3)c2)c1
2.1%,4,1%,24%,CCCn1c(=O)[nH]c2ccccc21
0.6%,/,/,12%,COc1ccc(-n2ccnc(SCC(=O)NC3CCCC3)c2=O)cc1OC
-1.6%,-5,0%,-26%,C#CCOCCOCCOCCNc1nc(N2CCN(C(=O)C(Cc3cc4ccccc4[nH]3)n3cc(C(N)Cc4ccc(O)cc4)nn3)CC2)nc(N2CCN(C(=O)C(Cc3cc4ccccc4[nH]3)n3cc(C(N)Cc4ccc(O)cc4)nn3)CC2)n1 (stereo unspecified)
3.6%,-14,0%,-3%,CCOc1ccc(NC(=O)COn2nnc3ccc(S(=O)(=O)N4CCOCC4)cc32)cc1
0.2%,-3,0%,-1%,FC(F)(F)c1cccc(Cc2noc(CN3CCCC(OCc4ccccn4)C3)n2)c1 (stereo unspecified)

6 entries drawn at random from the list so far:
Rango-impB inh,GLA inh pH 4.5,miR-21 FLuc,Rango dissoc inh,mol
3.6%,-14,0%,-3%,CCOc1ccc(NC(=O)COn2nnc3ccc(S(=O)(=O)N4CCOCC4)cc32)cc1
4.8%,/,-1%,8%,O=C(O)c1ccc(OCCN2CCCC2=O)cc1
?,/,/,0%,CN(c1ccccc1)S(=O)(=O)c1cccc(NC(=O)CSc2nccc(=O)[nH]2)c1
-1.3%,7,-33%,-1%,CCCOc1ccc(N2C(=O)CC(N(O)c3ccccc3)C2=O)cc1 (stereo unspecified)
-1.0%,-10[21.1 µM],1%,-4%,C=CCn1c(SCC(=O)CC(=O)OCC)nc2cc(C(=O)N3CCC(C(N)=O)CC3)ccc2c1=O
0.3%,/,/,-11%,CC1CCCCN1C(=O)CSc1nnc2ccccn12 (stereo unspecified)

Additional results follow:
Rango-impB inh,GLA inh pH 4.5,miR-21 FLuc,Rango dissoc inh,mol
1.6%,7,0%,1%,CCCn1c(SCC(=O)NCc2ccc(C)cc2)n[nH]c1=O
3.7%,-3,10%,3%,CC(C)(C)OC(=O)CC[C@@H](C(=O)N1CCN(C(=O)OC(C)(C)C)CC1)n1cc(C(Cc2ccc(O)cc2)NC(=O)OC(C)(C)C)nn1 (stereo partly specified)
-1.5%,/,21%,34%,COc1cc(-c2cc(C(=O)Nc3ccc(S(N)(=O)=O)cc3)c3ccccc3n2)cc(OC)c1OC
6.6%,5,1%,-3%,C=CCNC(=S)N1CCN(c2ncc3c(=O)c(C(=O)O)cn(CC)c3n2)CC1
-0.3%,/,0%,2%,COc1ccc(CN2CCNC(=O)C2CC(=O)NCC2CCOCC2)c(F)c1 (stereo unspecified)
-3.6%,/,-69%,-19%,CC1(C(=O)Nc2nc3ccccc3s2)CC1(Br)Br (stereo unspecified)
-0.5%,-16,-27%,-8%,Cc1cc2c(=O)oc(-c3ccc(Br)cc3)nc2s1
-5.7%,-5,-6%,?,Cc1c(O)cc2c(c1O)C(=O)CC(c1ccc(O)cc1)O2 (stereo unspecified)
-3.3%,-8,4%,-12%,COCC(C)n1c(C)cc(C(=O)COc2ccc(S(=O)(=O)N3CCOCC3)cc2Cl)c1C (stereo unspecified)
0.6%,-2,5%,-14%,Cc1ccccc1NC(=O)Cn1nc(C(F)(F)F)cc1C1CC1
0.7%,8,-6%,1%,Cc1nn(Cc2ccccc2Cl)c(C)c1NC(=O)CCCn1nc(C)c([N+](=O)[O-])c1C
-2.9%,/,/,6%,O=C(COC(=O)c1ccc(Cl)nc1)Nc1nnc(-c2ccccc2)o1
-1.6%,2,-4%,10%,COc1cccc(-n2nnc3c(=O)n(Cc4ccc(F)cc4)cnc32)c1
-1.7%,/,/,2%,O=C(O)C(c1ccccc1)C1CCCCC1O (stereo unspecified)
0.1%,/,/,0%,CCc1cc2c(SC(C)C(=O)NC3CCCC3)ncnc2s1 (stereo unspecified)
0.3%,0,-59%,-8%,CCCn1cnc2cc(NCc3cccc(OC)c3)ccc21
-2.0%,/,13%,0%,O=C(CN(C(=O)c1csnn1)c1ccc(F)c(Cl)c1)NCc1ccc2c(c1)OCO2
-1.2%,/,/,8%,Cc1cc(N2CCCC2)ccc1NC(=O)COc1ccccc1
0.2%,/,-2%,-4%,Cn1c(CNC(=O)CNC(=O)c2cccc(F)c2)cc(=O)n(C)c1=O
0.6%,-5,-1%,0%,CCCNC(=O)COC(=O)c1cc(SC)ccc1Cl
-0.6%,14,-42%,22%,O=C1c2ccccc2-c2nnc(-c3ccccc3)cc21
-5.6%,/,/,-4%,COCCCN1CC23C=CC(O2)C(C(=O)OC)C3C1=O (stereo unspecified)
-4.1%,/,-50%,9%,O=C(CNc1cccc(F)c1)N1CCc2ccccc2C1
-4.9%,/,/,11%,CN(C(=O)CSc1nnc(-c2ccc(Cl)cc2)n1C)C1CCS(=O)(=O)C1 (stereo unspecified)
-3.2%,/,/,6%,COc1ccccc1NS(=O)(=O)c1cc(NC(=O)CCNC(C)=O)ccc1N1CCCCC1
5.5%,/,/,-11%,CC(Oc1ccc(Br)cc1)C(=O)Nc1ccc(S(=O)(=O)NC2=NCCCCC2)cc1 (stereo unspecified)
7.5%,6,2%,5%,COc1ccc(NC(=O)COC(=O)C23CCC(=O)N2c2ccccc2S3)cc1 (stereo unspecified)
2.5%,-14,-18%,-8%,C/C(=N\NC(=O)CSc1nc2ccccc2s1)c1cccnc1
-4.8%,/,0%,0%,Cc1cc(C)cc(S(=O)(=O)c2cn(C)c3cc(N4CCN(C)CC4)c(F)cc3c2=O)c1
-0.7%,-5,1%,26%,Cc1ccc(S(=O)(=O)N2CCN(C(=O)c3n[nH]c(=O)c4ccccc34)CC2)cc1
1.1%,/,-4%,0%,Cc1cc(C)nc(SCC(=O)OCC(=O)Nc2ccccc2)n1
9.4%,2,-2%,1%,CN(C)CCSc1nc(O)c(-c2ccccc2)c(=O)n1-c1ccccc1
0.1%,/,/,-8%,COc1cccc(NC(=O)CN(C)C(=O)COc2ccccc2Cc2ccccc2)c1
-2.8%,/,0%,0%,CCC(C(=O)OC(C)C(=O)Nc1ccc(Cl)cn1)c1ccccc1 (stereo unspecified)
-0.7%,0,-7%,0%,CCN(C(=O)CSc1nnc(-c2ccccc2Br)o1)C1CCS(=O)(=O)C1 (stereo unspecified)
-1.4%,0,-15%,6%,Cc1ccc(C(=O)NCC(=O)NCCc2ccc(S(N)(=O)=O)cc2)s1
-0.9%,-13,-2%,-18%,CCN(CC)c1ccc(/C=N/N2C(=O)c3ccccc3C2=O)cc1
/,-1,0%,/,COC(=O)c1ccc(S(=O)(=O)N(Cc2cc3cc4c(cc3[nH]c2=O)OCO4)C2CCCCC2)cc1
3.4%,/,0%,1%,CCC(=O)Nc1ccc(Cl)c(-c2nc3ncccc3o2)c1
1.9%,4,3%,-14%,O=c1sc2ccccc2c(=O)n1Cc1ccccc1F
2.2%,/,4%,4%,CCC1(c2ccc(F)cc2)NC(=O)N(CC(=O)NCc2ccc(F)cc2)C1=O (stereo unspecified)
-1.3%,-16,2%,-18%,CCc1ccc(CCC(=O)Nc2ccc(C)cc2C)o1
?,-3,-15%,0%,CC(=O)c1c(C)[nH]c(C(=O)CSc2nnc(N)s2)c1C
?,15,-7%,-2%,CCN1c2ccccc2-c2nc3ccccc3n2C1c1cccnc1 (stereo unspecified)
-1.1%,/,/,-2%,O=C(CCN=C1NS(=O)(=O)c2ccccc21)OCC(=O)c1ccc(F)cc1
0.3%,-9,6%,17%,CCN(CC)c1ccc(C=O)c(OC)c1
4.3%,/,/,-4%,COc1ccc2cc(CNCCOCCOCCNCc3ccc4cc(OC)ccc4c3)ccc2c1
0.7%,-4,-7%,1%,O=C(O)[C@H](Cc1ccccc1)NC(=O)N1CCN(c2cccc(C(F)(F)F)c2)CC1
0.3%,/,-1%,-12%,CC1CCCCC12NC(=O)N(CC(=O)c1ccc(Cl)s1)C2=O (stereo unspecified)
-1.0%,4,-1%,-9%,CC(C)(O)C(=O)NNC(=S)NCc1ccco1
-2.2%,-4,-8%,-6%,CC(/C=C/c1ccc(Cl)o1)=C\C(=O)O
0.7%,1,-4%,-16%,CCOC(=O)NCN1C(=O)C2C3C=CC(C3)C2C1=O (stereo unspecified)
-0.1%,/,-7%,3%,CC(C)(C)c1ccc(OCCNCc2ccccc2)cc1
0.3%,-5,-13%,-7%,CC(=O)N(c1nc(/C=C\C(=O)O)cs1)c1ccccc1F
-1.5%,/,1%,5%,Cc1ccccc1N(C(=O)CCC(=O)Nc1ccccn1)C(C(=O)NC(C)C)c1ccc(F)cc1 (stereo unspecified)
-0.7%,/,/,-3%,CCCCn1c(N)c(N(C)C(=O)c2cn(-c3ccccc3)nc2-c2ccccc2)c(=O)[nH]c1=O
-1.2%,/,-10%,3%,O=C(Cn1nc(-c2ccco2)ccc1=O)Nc1cc(C(F)(F)F)ccc1Cl
-0.3%,-6,-2%,-4%,CCOc1ccc(/C=N/OC(C)C(=O)NCc2ccc3c(c2)OCO3)cc1 (stereo unspecified)
?,1,-1%,?,CCN(CC)C(=O)CSC(Nc1cccc(F)c1)=C(C#N)C#N
-0.8%,/,0%,23%,Cc1cccc(N2CCN(c3ccc4cc(S(=O)(=O)N5CCCCC5)ccc4n3)CC2C)c1 (stereo unspecified)
-9.2%,/,-3%,7%,CC1(C)CC(NC(=O)c2ccccc2F)CC(C)(C)N1
0.3%,2,-4%,-9%,O=C(O)C1=C[C@H](c2csc3ccccc23)C[C@H](OCc2ccc(CO)cc2)O1
-3.3%,13,-2%,-7%,[O-]/C(=C(\C(=S)NCc1ccco1)[n+]1ccccc1)c1ccccc1Br
